Sa helicase inh: inhibitors of S. aureus replicative helicase, primary screen, biochemical, fluorescence unwinding readout; inhibition, %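 (tested at about 80 µM)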; purified S. aureus helicase, fluorescence unwinding assay; about half of the hits fall short of the stated cut; replicative DNA helicase (DnaC/DnaB), Staphylococcus aureus; actives 0.05% (n = 120,000);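 active = both duplicates at 50% or more, or one of them with a favoured structure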;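 also: 0% = mean of negative control wells and 100% = mean of positive control wells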
MgrA DNA FP: S. aureus MgrA activity modulators, primary screen, biochemical, S. aureus Newman, fluorescence polarization. actives 0.13% (n = 84,000). MgrA-DNA binding. inhibition, %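 (about 10 µg/mL by stock and volumes)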;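 active = above 50% in either of two replicates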;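 also: 0% = protein plus DNA without compound and 100% = DNA alone without protein; higher means less MgrA bound to DNA so lower polarization; one replicate is shown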
The depositor's hits bear a star; · = not tested or not shown; & = joins results of further samples.

SMILES	Sa helicase inh	MgrA DNA FP
C=CCn1c(SCC(=O)OCC)nc2sc3c(c2c1=O)CC(C)(C)SC3	2	·
CC1(C)C=Cc2c(c3occc3c3oc(-c4ccccc4)cc(=O)c23)O1	·	2.4
N#Cc1c(N)nc2c(c1C(=O)OCCO)CCC2	15	·
O=C1Nc2ccccc2N(O)N1c1ccc(S(=O)(=O)N2CCOCC2)cc1	14	·
CCOC(=O)C1=C(N)Oc2ccc(Br)cc2C1C(C#N)C(=O)OCC (centres undefined)	·	3.1&4.5
CC(C)CNC(=O)c1ccc2c(=O)n(CC(C)C)c(=S)[nH]c2c1	26	·
COc1cccc(/C=N/n2c(N3CCOCC3)nc3ccccc32)c1OC	4	·
O=c1[nH]c2c(F)cccc2c(O)c1-c1ccccc1	·	-1.1
O=C(/C(=C/c1cccs1)c1cccs1)N1CCCCCC1	7	-2.0
N#CCCN(CCN1CCOCC1)C(=S)Nc1ccc(Cl)c(Cl)c1	-10	·
COC(CNC(=O)Cn1nc(Cc2cccnc2)c2ccccc2c1=O)OC	22	·
Cc1onc(-c2c(Cl)cccc2Cl)c1C(=O)O/N=C(\N)CN1CCSCC1	-3	·
CC1CCCN(C(=O)Cn2cc(S(=O)(=O)N3CCN(c4ccccc4F)CC3)c3ccccc3c2=O)C1 (centres undefined)	-4	·
C=C1c2ccccc2NC(=O)N1c1ccc(C)cc1	4	0.0
CC(C)(C)n1nc2c(c1NC(=O)c1ccccc1)CSC2	18	·
CC(CN1CCOCC1)OC(=O)Cc1ccc(Cl)cc1 (centres undefined)	-2	-1.8
CN(C)C(=O)c1coc2nc3ccccc3nc12	0	-1.1
CC(C)(O)C12CC3CC(C1)CC(C(C)(C)O)(C3)C2	1	2.0
CN(C)C(=O)CSc1nc2cc(Cl)ccc2o1	-3	·
O=C(O)C1C2C=CC(C2)C1C(=O)NCc1cccs1 (centres undefined)	-1	0.8
O=S(=O)(Cc1cccc(C(F)(F)F)c1)NCc1cccs1	·	-2.8
NC(=O)C1CCCN1c1nc(-c2cccs2)nc2ccccc12 (centres undefined)	-1	·
COC(CN(C(C)=O)C1CCCc2c1[nH]c1ccc(C)cc21)OC (centres undefined)	12	2.7
Cc1ccc(C(=O)N(C)c2ccc(OCC(=O)N(C)C3CCN(C)CC3)cc2)cc1	-11	-1.6
CN(c1nc2ccccc2[nH]c1=O)C1CCCCC1	-108	·
CCNC(=S)N/N=C/c1ccc(OCC(=O)N2CC(C)OC(C)C2)c(OC)c1 (centres undefined)	-17	·
O=C(O)CCCC(=O)Nc1cccc(F)c1C(=O)O	·	-1.3
CCCNC(=O)Cn1cc2c(n1)CCCCC2	10	-0.2
OC(CCN1CCOCC1)c1ccccc1 (centres undefined)	11	·
CC(C)CN(Cc1c(O)ccc2c(=O)c(-c3ccccc3)coc12)CC(C)C	12	-1.7

Structures shown so far that have a halogen, in the order listed:
SMILES	Sa helicase inh	MgrA DNA FP
CCOC(=O)C1=C(N)Oc2ccc(Br)cc2C1C(C#N)C(=O)OCC (centres undefined)	·	3.1&4.5
O=c1[nH]c2c(F)cccc2c(O)c1-c1ccccc1	·	-1.1
N#CCCN(CCN1CCOCC1)C(=S)Nc1ccc(Cl)c(Cl)c1	-10	·
Cc1onc(-c2c(Cl)cccc2Cl)c1C(=O)O/N=C(\N)CN1CCSCC1	-3	·
CC1CCCN(C(=O)Cn2cc(S(=O)(=O)N3CCN(c4ccccc4F)CC3)c3ccccc3c2=O)C1 (centres undefined)	-4	·
CC(CN1CCOCC1)OC(=O)Cc1ccc(Cl)cc1 (centres undefined)	-2	-1.8
CN(C)C(=O)CSc1nc2cc(Cl)ccc2o1	-3	·
O=S(=O)(Cc1cccc(C(F)(F)F)c1)NCc1cccs1	·	-2.8
O=C(O)CCCC(=O)Nc1cccc(F)c1C(=O)O	·	-1.3

Next section
SMILES	Sa helicase inh	MgrA DNA FP
CN(C)c1ccc2c3c(cccc13)C(=O)N(c1ccccc1)C2=O	-126	·
N#CC1=C(N)C(C#N)(C#N)C(c2ccc(OC(F)F)cc2)C=C1C1CC1 (centres undefined)	-14	·
CCN(C(=O)COc1ccc(C)cc1C)C1CCS(=O)(=O)C1 (centres undefined)	-4	·
c1cncc(-c2nc3ccccn3c2Nc2ccc3c(c2)OCCO3)c1	-5	·
COCCNC(=S)Nc1nc(OC)cc(OC)n1	10	0.5
CCOc1ccc(C(N)=O)cc1OC	-8	·
COc1cc(OC)c(CNc2ccc3cn[nH]c3c2)cc1Br	9	-3.2
N#CCSc1nc2scc(-c3cccs3)c2c(=O)n1CCc1ccccc1	-6	·
COc1cc(C(=O)NCC(c2ccccc2)c2c[nH]c3ccccc23)cc(OC)c1OC (centres undefined)	·	-0.4
Cc1ccc(CC2SC(=O)NC2=O)cc1Cl (centres undefined)	18	-1.2
Fc1cccc(Cl)c1CN1CCN(CCCNc2nc(-c3ccccc3)ns2)CC1	·	-2.6
CSc1ccccc1C(=O)Nc1ccc(Cl)cc1	·	-3.8
COc1ccc(/C(O)=C/c2nc3ccc(C(=O)N4CCOCC4)cc3[nH]c2=O)cc1OC	-55	-5.2
Cc1c(C(=O)O)oc2c1-c1[nH]ncc1CC2	10	·
COc1ccc(N=C2SCCCN2C(=O)C2CCCC2)cc1OC	-4	·
CC(=O)NC(Cc1cnc[nH]1)C(=O)O (centres undefined)	-2	3.0
CCOC(=O)c1cncc(Br)c1	·	-2.1
COc1ccc(NC(=O)CSc2nncn3c2cc2occc23)cc1	-42	·
Cn1nc(OC(C)(C)C(=O)O)cc1C(F)(F)F	·	-0.7
Cc1cccc(OCC(=O)O)c1C	10	-3.0
Cc1ccc(NCn2nnc3ccccc32)cc1	3	-0.4
COC(=O)c1c(-c2c(Cl)cccc2Cl)noc1NC(=O)NCc1ccccc1	·	3.4
CC(=O)N1CCc2cc(C(O)CN3CCN(c4ccccn4)CC3)ccc21 (centres undefined)	4	·
CCN(C(=O)Cc1noc2ccccc12)c1cc(OC)ccc1OC	9	-1.1
CCCOc1ccc(C2(C(=O)O)CCCC2)cc1	14	2.0
Nc1nc2nc3ccccc3n2c(=O)[nH]1	-14	·
Fc1ccc(NCc2cn(-c3ccccc3)nc2-c2cccs2)c(F)c1	1	-2.1
O=C(c1ccc(F)cc1)c1cc2cc(Br)cc(Br)c2o1	·	0.5
CC(NC(=O)COc1ccc(C#N)cc1)C12CC3CC(CC(C3)C1)C2 (centres undefined)	-6	-0.2
CCN1C(=O)/C(=C/c2ccccc2NC(C)=O)OC1=S	22	5.2
CC(NC(N)=S)c1ccccc1 (centres undefined)	-8	·
CCc1onc(-c2c(Cl)cccc2Cl)c1C(=O)O	·	-2.1
CCc1ccc(NS(=O)(=O)c2ccc3[nH]cc(C(=O)NC)c(=O)c3c2)cc1	11	-0.8
CCOC(=O)c1[nH]c2ccccc2c1NC(=S)Nc1cccc(C)c1C	14	1.0
O/C(=C\SC1=NCCN1)C12CC3CC(CC(C3)C1)C2	-9	-1.0
O=C(COc1ccccc1)NC1CCS(=O)(=O)C1 (centres undefined)	-17	·
CCOC(=O)CN1C(=O)c2ccccc2S1(=O)=O	·	-1.3
O=S(=O)(Cc1ccccc1)c1ccccc1	·	-2.0
CCOC(=O)COc1cc2oc(C)c(-c3nc4ccccc4s3)c(=O)c2cc1CC	9	0.4
N#Cc1ccc(S(=O)(=O)N2CCN(c3nc4ccc(Cl)cc4s3)CC2)cc1	·	-2.2
Cn1cc(C(=O)CSc2nnc(-c3ccoc3)c(-c3ccoc3)n2)c2ccccc21	-4	21
NC1=C(C(=O)NC2CC2)C(=NC2CCCCC2)SC1C(=O)Nc1cc(Cl)ccc1Cl (centres undefined)	5	·
C=CCNC(=S)Nc1sc2c(c1C#N)CCCC2	·	0.5
COC(=O)NC1CCCCC1NC(=O)OC (centres undefined)	-2	0.2
Cc1csc(SCC(=O)NC(C)c2ccccc2)n1 (centres undefined)	9	·
CCCC(=O)Oc1cc2c(C(=O)OCC)c(C)n(-c3ccccc3)c2c2ccccc12	·	-2.2
O=C1CSC(/N=C/c2ccccc2O)=NN1	9	-0.6
CC1=CC(C)(C)N2C(=O)C3(N=C(N)NC(Nc4ccccc4)=N3)c3cc(C)cc1c32 (centres undefined)	3	-3.6
C=CCn1cnnc1SCC1CCCCC1	-6	·
CNC(=O)C1CC(=O)N(c2ccc(OC)cc2)C1 (centres undefined)	11	3.7
Brc1ccc(CNc2ccc(-c3nc4ncccc4o3)cc2)cc1	2	-0.9
CN1CCC(N(Cc2ccc3c(c2)OCO3)C(=O)c2cn(Cc3ccccc3)c3ccsc23)CC1	-12	0.4
COc1ccc(Oc2coc3cc(OC(=O)c4ccco4)ccc3c2=O)cc1	-14	·
COC(=O)c1cc(S(=O)(=O)N(C)Cc2ccccc2)cn1C	-26	·
CC(C)CCNC(=O)c1ccc2c(SCC(=O)O)c3c(nc2c1)CCC3	11	-0.6
Cn1c(=O)c2c(nc(Sc3nc4ccccc4n3CC(=O)N3CCCCC3)n2C)n(C)c1=O	-1	3.0
O=C(NC1CCCCC1)NC1C2CC3CC(C2)CC1C3 (centres undefined)	-11	1.3
COc1cccc(C(=O)Nc2ccc(S(=O)(=O)Nc3nccc(C)n3)cc2)c1	7	3.0
Cc1cc2c(cc1C)NC(=O)c1ccccc1C(c1ccccc1)=N2	·	2.8
CCOC(=O)/C(=N\Nc1ccc(Br)cc1)N1CC(C)OC(C)C1 (centres undefined)	-11	·
(next part)
SMILES	Sa helicase inh	MgrA DNA FP
CCc1nc2sc(C(c3ccccc3)N3CCCCC3)c(O)n2n1 (centres undefined)	-22	·
Cc1cc(C)cc(C(=O)NCC(=O)O)c1	21	-2.7
O=C(CSC1=NS(=O)(=O)c2ccccc2N1)Nc1ccccc1	1	·
CCCCc1ccc(NC(=O)OC)cc1	21	-1.1
CC(C)CCNC(=O)c1ccc(-n2ccc3ccccc32)s1	21	·
CCCn1ccnc1SCC(=O)NC(=O)NC12CC3CC(CC(C3)C1)C2	4	·
CCn1c(CNC(=O)COc2c(C)cccc2C)nnc1SCC(=O)Nc1ccc(OC)cc1	3	1.2
O=C([C@@H]1CCCN1C(=O)c1cccs1)N1CCN(Cc2ccc3c(c2)OCO3)CC1	-10	·
O=C(Cc1cccs1)Nc1cc(C(=O)O)cc(C(=O)O)c1	-2	-2.7
COc1cccc2sc(NC(=O)c3ccc(S(=O)(=O)N4CCCC(C)C4)cc3)nc12 (centres undefined)	10	0.6
CCN(CC)CC(=O)c1c[nH]c2ccccc12	-4	1.8
c1ccc2c(C3=NNC(=NC4CCCCC4)SC3)c[nH]c2c1	-6	·
O=S(=O)(NC1CCCCC1SC1=NCCS1)c1ccc(Cl)cc1 (centres undefined)	14	1.2
C/C(=N\O)C(=O)Nc1ccccc1	·	-1.1
COC(=O)c1ccccc1-c1ccc(/C=C2\C(=O)N(C)C(=O)C(C#N)=C2C)o1	9	31

Part of the list above in order of length of the SMILES, highest first.
SMILES	Sa helicase inh	MgrA DNA FP
CCN(CC)CC(=O)c1c[nH]c2ccccc12	-4	1.8
Cc1cc(C)cc(C(=O)NCC(=O)O)c1	21	-2.7
C/C(=N\O)C(=O)Nc1ccccc1	·	-1.1

(next part)
SMILES	Sa helicase inh	MgrA DNA FP
NCCCCN1CCCCC1	8	2.9
COc1ccc(NC(=O)c2ccc3c(c2)OCCO3)cc1	5	0.6
N#Cc1cnn2c(N)c(-c3ccccc3)cnc12	·	-0.3
S=C(NCc1ccncc1)NCc1ccco1	13	·
O=C(NCc1nc(-c2ccccc2)no1)C1CCCCC1	9	3.2
CCc1ccc(N2C(=O)N(CC(=O)N(CC)CC)C3CS(=O)(=O)CC32)cc1 (centres undefined)	-29	·
COc1cccc(N2CCN(S(=O)(=O)c3cc4c(cc3C)N(C)CCO4)CC2)c1	3	-0.9
Cc1cc(S(=O)(=O)N2CCCN(c3nc4ccc(Cl)cc4s3)CC2)c(C)cc1Cl	·	-1.2
CCc1ccc(C2CC(=O)NC3=C2C(=O)CC(C)(C)C3)cc1 (centres undefined)	9	2.1
CC(C)(C)OC(=O)N1CCC(CNS(=O)(=O)c2cccs2)CC1	·	-1.1
O=C1CCC(C(=O)OCn2nnc3ccccc3c2=O)=NN1	-2	·
CCn1c(O)c(/C(C)=N/c2ccnn2C2CCCCC2)c(=O)n(CC)c1=S	-25	·
Cc1cc(OCCNCCN)cc(C(C)C)c1	18	-3.7
CCn1cc(NC(=S)Nc2cc(Cl)ccc2OC)c(C(N)=O)n1	17	17
CCOc1cc(CNc2ccc(NC(=O)CC)cc2)ccc1OCc1cccs1	2	-1.5
C=CCn1c(=O)c2c(nc3n2CCCN3C2CCCCC2)n(C)c1=O	5	0.9
CC1CCC(CC(=O)O)(CC(=O)O)CC1	18	0.8
CN(Cc1ccc(-c2ccc(Cl)cc2)o1)C(C(=O)NC(N)=O)c1ccccc1 (centres undefined)	-6	·
C=CCNc1ncnc2sccc12	·	-1.4
COC(=O)c1ccccc1S(=O)(=O)Nc1cc(Cl)ccc1C	-5	·
CC(C)(C)Cc1cc(N)on1	-1	·
Cc1ccc(C(=O)COC(=O)c2ccc(-c3nnc(-c4ccccc4)o3)cc2)cc1C	1	0.5
CCOc1ccccc1-c1c(C#N)c(N)nc(OC)c1C#N	·	-1.0
C#CC(CC)(CC)NC(=O)NC(=O)c1ccc(F)c(Cl)c1	·	-0.7
CCCC1CCC(c2ccc(C#N)c(=O)[nH]2)CC1 (centres undefined)	5	3.1
CCc1c(O)nc(SCC(=O)N2CCc3ccccc32)n(-c2ccc(F)cc2)c1=O	8	0.9
Cc1occc1-c1nnc(SC(C)c2nc3sc4c(c3c(=O)[nH]2)CCC(C)C4)n1N (centres undefined)	13	·
CC1=Nc2ccc(N)cc2C1(C)C	-1	-1.6
O=c1c2ccccc2nc2ccc(NCc3ccco3)nn12	7	·
CNCc1ccccc1OC	-7	·
CCOC(=O)c1cc2c(ccn2C)n1Cc1ccc(OC(F)(F)F)cc1	-1	10
C=CC(=O)Nc1ccc(OC(F)(F)F)cc1	·	3.4
COc1cccc(C2C(C(=O)Nc3ccccc3)=C(C)N=C3SCC(=O)N32)c1 (centres undefined)	16	·

Screening data (PubChem BioAssay)

A portion of the library (hit frequency here may not be typical).
